TDP1 cell CPT – DT40-hTDP1 cell growth loss with CPT. chicken DT40 Tdp1-/-;hTDP1 cells + 20 nM CPT, ATP luminescence, 48 h. hit rate 12% among 420,000. Potency, µM (highest dose often 46.2 µM), for inactives: at the top dose activity change, negative = growth inhibition, most hits filed as inhibitors; also: nearly all actives have a fitted effect of over 55% in size
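Chicken DT40 Tdp1-/- cells stably complemented with human TDP1 were seeded at 400 cells/well in medium containing 20 nM camptothecin, exposed to pin-transferred compounds, and grown at 37 °C for at least 48 hr. Viability was read as ATP luminescence.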
FEN1 inhibitor – blocks human flap endonuclease 1 | P39748 | Recombinant FEN1 flap cleavage, fluorescence, 15 min | Potency, µM (titrated, usually from 114 µM), for inactives: at the top dose activity change, negative = inhibition, actives largely listed as inhibitors | hit rate 0.35% among 390,000 | AID 588795; also: nearly all actives have a fitted effect of over 65% in size
Target sequence (P39748 whole entry, looked up): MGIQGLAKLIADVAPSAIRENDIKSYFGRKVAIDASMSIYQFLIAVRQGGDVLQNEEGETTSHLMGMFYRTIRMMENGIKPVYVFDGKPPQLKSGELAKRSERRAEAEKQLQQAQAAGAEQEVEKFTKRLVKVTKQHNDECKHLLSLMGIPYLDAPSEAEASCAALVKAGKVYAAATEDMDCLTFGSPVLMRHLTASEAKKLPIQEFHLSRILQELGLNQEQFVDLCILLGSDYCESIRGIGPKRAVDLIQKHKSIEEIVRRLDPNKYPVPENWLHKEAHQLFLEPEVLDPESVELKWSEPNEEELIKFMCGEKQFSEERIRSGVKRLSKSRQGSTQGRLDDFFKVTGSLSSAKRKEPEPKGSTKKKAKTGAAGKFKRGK
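Concentration–response screening of FEN1 (10 nM): 15 min compound preincubation at room temperature, reaction started with 50 nM substrate and read at 0 and 15 min. Corrected, normalized data were fitted by a four-parameter Hill equation.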
Active calls of the source: *; ? = inconclusive; & = joins results of further samples; [ ] = dose if it differs, or a comment. Calls follow the shape of the dose curve; as a rule, active = well fitted curve in the direction sought with a large enough effect; inconclusive = small, poorly fitted or top-dose-only effect, or another doubt; inactive = no such curve, though single readings can be large; an effect the other way counts as inactive or inconclusive. % is scaled to controls: 0 for no effect and ±100 for the full control effect; potency is read from the fitted curve at half-maximal effect. This is a subset; most or all hits stand in other tables.

Sample of the layout:
SMILES | TDP1 cell CPT | FEN1 inhibitor
CCOc1ccc(NC(=O)Cn2cc(C(=O)C3CC3)c3ccccc32)cc1 | -0.9%&-0.3% | 0.6%&14.2%
Cc1oc2c(c1C(=O)NC(Cc1c[nH]c3ccccc13)C(=O)O)CCCC2 (stereo not given) | -2.1% | -12.0%

The list itself (from the top)
SMILES | TDP1 cell CPT | FEN1 inhibitor
CCOc1ccc(NC(=O)Cn2cc(C(=O)C3CC3)c3ccccc32)cc1 | -0.9%&-0.3% | 0.6%&14.2%
Cc1oc2c(c1C(=O)NC(Cc1c[nH]c3ccccc13)C(=O)O)CCCC2 (stereo not given) | -2.1% | -12.0%
Cc1nc(CN2CCN(C(=O)CCc3nnc(Cc4c[nH]c5ccccc45)o3)CC2)cs1 | -3.6% | -3.9%
COc1ccccc1-c1ccc(SCC(=O)Nc2cc(C)on2)nn1 | 1.0% | 0.8%
NC(N)=NS(=O)(=O)c1ccc(N/C=C/C(=O)c2ccc(Cl)c(Cl)c2)cc1 | ? | -14.4%
CCCN1/C(=C2/SC(=S)N(CC)C2=O)C=Cc2ccccc21 | ? | -11.7%
C/C(=N\NC(=O)COc1ccc2ccccc2c1)c1cccs1 | -29.4% | -2.5%
CCOC(=O)N1CCN(c2ncc(C(F)(F)F)cc2Cl)CC1 | ? | 0.6%
CCS(=O)(=O)C(=C(Nc1ccc(OC)cc1)Nc1ccc(OC)cc1)S(=O)(=O)CC | ? | -0.3%
COc1ccc(NC(=O)CSCc2cc(=O)n3ccsc3n2)cc1 | -1.2% | -5.5%
CC1=C(CCN2CCN(C3CCCC3)C(CCO)C2)C(C)(C)CCC1 (stereo not given) | 20.6µM* | 7.8%
O=C(c1ccc(N2C(=O)C3CC=C(Cl)CC3C2=O)cc1)N1CCOCC1 (stereo not given) | -8.7% | 2.9%
CC(OC(=O)c1cccc(S(=O)(=O)N2CCCCCC2)c1)C(=O)Nc1ccc(S(N)(=O)=O)cc1 (stereo not given) | -2.3% | -14.1%
Cc1cccc(C(=O)NCC(=O)NCCSc2ccc(Br)cc2)c1 | -18.5% | 0.1%
O=C1C/C(=C\c2c(F)cccc2Cl)N2CCC1CC2 | 2.2% | -0.2%

Whole records, quoted from the list. Values in the order: TDP1 cell CPT, FEN1 inhibitor
`Cc1oc2c(c1C(=O)NC(Cc1c[nH]c3ccccc13)C(=O)O)CCCC2` (stereo not given) across the screens: -2.1%, -12.0%
`CC(OC(=O)c1cccc(S(=O)(=O)N2CCCCCC2)c1)C(=O)Nc1ccc(S(N)(=O)=O)cc1` (stereo not given) across the screens: -2.3%, -14.1%
`Cc1nc(CN2CCN(C(=O)CCc3nnc(Cc4c[nH]c5ccccc45)o3)CC2)cs1` across the screens: -3.6%, -3.9%
`COc1ccc(NC(=O)CSCc2cc(=O)n3ccsc3n2)cc1` across the screens: -1.2%, -5.5%

Four records picked at random from the list so far:
SMILES | TDP1 cell CPT | FEN1 inhibitor
CCOc1ccc(NC(=O)Cn2cc(C(=O)C3CC3)c3ccccc32)cc1 | -0.9%&-0.3% | 0.6%&14.2%
C/C(=N\NC(=O)COc1ccc2ccccc2c1)c1cccs1 | -29.4% | -2.5%
O=C1C/C(=C\c2c(F)cccc2Cl)N2CCC1CC2 | 2.2% | -0.2%
CC(OC(=O)c1cccc(S(=O)(=O)N2CCCCCC2)c1)C(=O)Nc1ccc(S(N)(=O)=O)cc1 (stereo not given) | -2.3% | -14.1%

Following part
SMILES | TDP1 cell CPT | FEN1 inhibitor
O=[N+]([O-])c1ccc(-c2cnc(NO)nc2)cc1 | -10.7% | -0.3%
COCC(=O)n1nc(-c2ccccc2)nc1NCc1cccs1 | 12.6% | -3.0%
Clc1ccc(-n2ncc3c(NCc4ccco4)ncnc32)cc1 | ? | 0.0%
CCOC(=O)C1(CCOC)CCN(C(=O)c2ccc(CSC)o2)CC1 | 4.4% | -2.5%
O=C(NCc1ccccc1)C(c1ccccc1F)N(C(=O)c1csnn1)C1CCCC1 (stereo not given) | -1.8% | -1.8%
Cc1cc(NS(=O)(=O)c2ccc(NC(=O)COc3ccccc3Cl)cc2)no1 | -0.3% | -14.7%
CCc1nc2c(nnn2Cc2ccc(F)cc2)c(=O)[nH]1 | -21.0% | 6.6%
CCOC(=O)c1c(C)n(C)c2ccc(OCC(O)CNC(CC)CO)cc12 (stereo not given) | -10.1% | -8.9%
O=C(O)CCC(=O)NN1C(=O)c2ccccc2NC1c1ccc(F)cc1 (stereo not given) | 0.9% | 2.4%
Cc1cc(C)n(C(=O)CNC(=O)c2cccc(F)c2)n1 | 2.7% | 11.8%
CCOc1ccccc1N1CC(C(=O)Nc2ccccc2CC)CC1=O (stereo not given) | 16.7% | 0.8%
Nc1nc(SCC(=O)Nc2ccc([N+](=O)[O-])cc2)[nH]c(=O)c1NC(=O)c1ccc(Br)cc1 | 19.8% | 0.3%
O=[N+]([O-])c1cnc(Nc2ccccc2)nc1Nc1ccccc1 | 22.3% | 3.1%
CCc1ccc(C(=O)NNC(=O)c2cccc(S(=O)(=O)N3CCN(C)CC3)c2)cc1 | 2.4% | -0.5%
Cc1ccccc1C(=O)NC1CCN(CC(=O)NCc2cccs2)CC1 | 0.7% | -1.6%
C=CCn1cnc2c(nnn2-c2ccc(Cl)cc2)c1=O | 3.0% | 0.4%
CC12CN3CC(C)(CN(C1)C3c1ccccc1)C2O (stereo not given) | -5.8% | -4.1%
O=C1c2cccnc2C(O)N1C1CCCCC1 (stereo not given) | -8.7% | -4.7%
COc1ccc2nc3oc(C(=O)NC4CCN(Cc5ccccc5)CC4)cc3cc2c1 | 17.8µM* | 0.4%
Cc1cc(C(=O)COC(=O)c2ccncc2)c(C)n1Cc1ccco1 | -8.8% | 0.8%
CC1(C)Cc2ccccc2C(N)=C1C#N | -4.8% | -19.0%
COc1ccc2c(C(=O)c3ccc(C)cc3)n(CCCC(N)=O)[n+]([O-])c2c1 | 2.0% | -14.8%
CCc1nnc(NC(=O)CSc2nnc(Cc3ccccc3)n2-c2ccc(OC)cc2)s1 | -7.3% | -11.3%
CCOC(=O)c1cc(=O)cc(C(=O)OCC)o1 | 1.6% | -10.8%
CCN(CC)C(=O)CNC(=S)N(CCCN1CCOCC1)Cc1cccs1 | 1.3% | -1.0%
CC1CCN(CCCCOc2cccc(Br)c2)CC1 | ? | 2.4%
Cc1cc(C)c(S(=O)(=O)Nc2nccs2)c(C)c1 | 3.5% | -6.7%
CCCC(=O)Nc1cccc(-c2nc3ccccc3c(=O)o2)c1 | 39.0%[activator] | 13.0%
COc1ccc(N(C(=O)c2ccncc2)S(=O)(=O)c2ccc(Cl)cc2)cc1 | -7.3% | -3.2%
Clc1ccc(Oc2nc(N3CCOCC3)nc(N3CCOCC3)n2)cc1 | ? | -6.6%
CCCCOc1ccc(C(=O)NCC(=O)N2CC(C)OC(C)C2)cc1 (stereo not given) | -13.6% | 4.4%
CN(C)c1cccc(NC(=O)C2(C)CC2(Cl)Cl)c1 (stereo not given) | 4.5% | -2.2%
O=C(CSc1nc(-c2ccccc2)cc(=O)[nH]1)Nc1ccc(Br)cc1 | -13.9% | 14.9%
COc1ccc(C(=O)Nc2ccc3oc(-c4cccc(Cl)c4)cc(=O)c3c2O)cc1 | -28.1% | 11.3%
COc1ccc(S(=O)(=O)N2CCC(C(=O)NCc3ccccn3)CC2)cc1C | -18.1% | 7.6%
CC(Sc1ccc2c(c1)OCCO2)C(=O)Nc1ccc(N2CCOCC2)cc1 (stereo not given) | 0.1% | -1.4%
O=S(=O)(c1ccc(NC(=S)NCc2cccnc2)cc1)N1CCCCC1 | 8.2µM* | -3.0%
O=C(/C=C/NNC(=O)c1ccccc1)c1ccccc1 | 0.581µM* | -4.2%
CC1CN(c2ccc(Cl)cc2)c2nc3c(c(=O)[nH]c(=O)n3C)n2C1 (stereo not given) | ? | 12.9%
CC(=O)c1ccc(NC(=O)CN(C)CC(=O)Nc2cccc(F)c2)cc1 | 2.4% | 5.8%
COC(=O)c1cc(-c2ccc(OC)c(OC)c2)c2c(=O)[nH]c(=O)n(C)c2n1 | -9.1%&-1.3% | 31.1%&-2.9%[activator]
Cc1ccc(-c2cc(C(=O)N(C)Cc3cnn(C)c3C)c3cc(Br)ccc3n2)cc1 | 7.31µM* | -18.6%
Cc1cc(=O)n2nc(N3CCCC(C(=O)Nc4ccc(C)c(C)c4)C3)sc2n1 (stereo not given) | ? | 19.3%
COC(=O)c1ccccc1NC(=O)[C@@H]1CCC(=O)N1C1OC(=O)c2c1ccc(OC)c2OC (stereo not given in full) | 5.0% | -2.2%
C/C(=N\NC(=O)CSc1nnc(C)s1)c1ccc(O)cc1 | 0.5% | -2.4%
COc1ccc(/C=C(/NC(=O)c2ccccc2)C(=O)NCc2ccncc2)cc1 | 7.7% | 13.1%
Cc1ccccc1Cn1nc(C)c(NC(=O)/C=C/c2cnn(C)c2C)c1C | ? | 0.3%
CN(CC(=O)Nc1ccccc1C(F)(F)F)C(=O)c1cc([N+](=O)[O-])ccc1N1CCOCC1 | 0.2% | -10.1%
Cc1nn(C)c(C)c1NC(=O)CCl | 37.8%[activator] | -3.2%
COc1ccc(NC(=O)CC2C(=O)N(c3ccc(OC)cc3)C(=O)N2C(C)C)cc1 (stereo not given) | 3.5% | 7.4%
CCC1Oc2ccccc2N(CC(=O)NC2CC2)C1=O (stereo not given) | -5.4% | -2.0%
CCN(CC)C(=O)CSc1nnc(NC(=O)CCc2ccccc2)s1 | -29.0% | 23.9%
COc1ccc(OC)c2sc(NC(=O)C3=COCCO3)nc12 | -22.7% | -4.6%
CN(C)/C=C/C(=O)/C=C/c1ccc(Cl)cc1Cl | 6.6% | 6.1%
O=C(/C=C/c1ccccc1)Nc1scc(-c2ccccc2)c1C(=O)O | -3.2% | -10.9%
Cc1ccccc1C(=O)Nc1cccc(C(=O)N/N=C/c2cc(Cl)cc([N+](=O)[O-])c2O)c1 | ? | -9.2%
Cc1nc(SCC(=O)NCC2CCCO2)c2c3c(sc2n1)CCC3 (stereo not given) | -15.6% | 2.6%
Cc1cccc(NC(=O)CSCC(=O)N2CCN(Cc3ccc4c(c3)OCO4)CC2)c1 | -16.6% | 10.2%
CCOC(=O)N1CCN(CCC(=O)Nc2cccc(Br)c2)CC1 | -0.7%&-7.3% | -2.4%&1.7%
CSc1nc2cc(Cl)ccc2s1 | 0.1% | 4.2%

Additional results follow:
SMILES | TDP1 cell CPT | FEN1 inhibitor
CC(=O)N1CCN(c2ccc(NC(=S)NC(=O)c3ccccc3)cc2)CC1 | -13.1% | 2.6%
CC(C)(C)C(=O)NCc1ccc(C(=O)CSc2nnc(-c3ccncc3)n2C2CC2)s1 | -9.6% | -2.4%
O=c1c2sc3ccccc3c2[nH]c(=S)n1CCN1CCOCC1 | 14.4% | 5.2%
O=C(/C=C/c1cccc(Cl)c1)OCc1cn2cc(Cl)ccc2n1 | -1.6% | 6.2%
CCC(c1nnnn1CC1CCCO1)N(CCN1CCOCC1)Cc1cc2cc(C)ccc2[nH]c1=O (stereo not given) | -28.4% | 0.2%
Cc1cccc(NC(=O)CSc2nnc(Cc3ccccc3)o2)c1 | -8.7% | 8.2%
Cc1cc(OCC(=O)C(C)(C)C)c2c(C)c(C)c(=O)oc2c1 | -17.3% | -0.4%
O=C(Nc1cnc2ccccc2c1)C1COc2ccccc2O1 (stereo not given) | -25.1% | -1.5%
COC(=O)c1c(-c2ccc(F)cc2)csc1NC(=O)C1CCCO1 (stereo not given) | ? | -16.3%
O=C(c1cccc(S(=O)(=O)N2CCCCC2)c1)N(CCc1ccccc1)Cc1ccccc1 | 18.4µM* | 10.9%
CC(C)(C)c1ccc(C(=O)N2CCN(CCNC(=O)C(=O)NCc3ccccc3)CC2)cc1 | ? | -1.1%
COc1ccccc1-n1c(=O)c(C#N)c(-c2ccc([N+](=O)[O-])cc2)c2cc(C(=O)c3ccccc3O)cnc21 | -11.8% | 15.5%
CC(=O)c1ccc(NC(=S)N2c3ccccc3CC2C)cc1 (stereo not given) | -27.2% | -12.4%
O=C(Nc1ccc(F)cc1Cl)C1CCN(C(=O)Nc2ccccc2)CC1 | -9.2% | 17.0%
O=C(CN(C(=O)c1csnn1)c1ccccc1C(F)(F)F)NCc1ccccc1 | -20.3% | -5.0%
Cc1ccc(S(=O)(=O)N2CCN(C(=O)CN3CCOCC3)C2c2ccccc2)cc1 (stereo not given) | ? | 4.3%
Cc1cc(C)n2nc(CC(=O)NNC(=O)COc3cccc(C)c3C)nc2n1 | 26.8% | 9.4%

Assay outcomes from PubChem BioAssay.
